PINK1 modulator – A Quantitative High throughput Screen to Identify Chemical Modulators of PINK1 Expression | Potency, µM (top dose mostly 76.6 µM), inactives show top-dose activation (PINK1 increase), hits mostly activators | PINK1 immunofluorescence, high-content cytometry, 24 h | 410,000 tested, 0.2% active | AID 624263, 2012; active = well fitted activation curve with a large enough effect; inconclusive = small, poorly fitted or top-dose-only effect; inactive = flat fitted curve, though single readings scatter; cell line not stated here;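 also: potency is read from the fitted curve at half-maximal effect; % of control where 0% means no effect; nearly all actives have a fitted effect of over 65% in size; a mitochondrial uncoupler was the plate control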
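Fluorescence from anti-PINK1 antibody, together with nuclear and cell stains, was scanned on a laser-scanning cytometer. Before staining, stable-line cells were incubated 24 hours with compounds at 5 concentrations; primary antibody 12 h at 10 degrees C.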
TRPML1 agonist – qHTS for Agonists of the Human Mucolipin Transient Receptor Potential 1 (TRPML1). activation, % (no concentration beside the values). 410,000 tested, 0.12% active. AID 624414, 2012. TRPML1-expressing cells, Ca2+ dye fluorescence, FDSS; host cell line not named in the record; reference of the full effect not given here; in the data active = activation above about 50%; inconclusive = about 30% to 50%; inactive = below about 30%; also: 0% is about no effect; the text of the record puts the active cut at 80%
Target sequence (Q9GZU1 whole entry, looked up): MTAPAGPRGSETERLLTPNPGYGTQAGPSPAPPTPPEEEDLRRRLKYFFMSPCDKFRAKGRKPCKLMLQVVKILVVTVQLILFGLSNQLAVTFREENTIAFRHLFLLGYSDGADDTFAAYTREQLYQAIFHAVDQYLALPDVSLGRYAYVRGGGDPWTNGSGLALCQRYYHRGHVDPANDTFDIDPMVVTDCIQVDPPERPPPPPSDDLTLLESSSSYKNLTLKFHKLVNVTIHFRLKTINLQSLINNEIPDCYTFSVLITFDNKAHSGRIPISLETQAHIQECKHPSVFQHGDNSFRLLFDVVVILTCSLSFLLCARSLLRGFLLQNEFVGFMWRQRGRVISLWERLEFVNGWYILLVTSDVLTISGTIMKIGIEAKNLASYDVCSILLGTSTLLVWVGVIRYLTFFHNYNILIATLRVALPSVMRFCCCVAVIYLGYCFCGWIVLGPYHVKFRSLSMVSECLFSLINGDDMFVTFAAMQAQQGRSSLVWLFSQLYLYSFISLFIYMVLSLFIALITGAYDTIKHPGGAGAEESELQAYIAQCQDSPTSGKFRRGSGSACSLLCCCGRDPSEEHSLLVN
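Agonist activity was taken from a 110 s kinetic Ca2+ dye read on the FDSS after pinning compounds onto TRPML1-DL cells. The cells were seeded at 1,500/well with Tet inducer, incubated about 16 h, then dye-loaded at room temperature.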
CtBP-E1A blk – qHTS Assay for Inhibitors of the CtBP/E1A Interaction | CtBP / adenovirus E1A interaction (AlphaScreen) | AlphaScreen GST-E1A/His-CtBP binding, 1536-well; active compounds read low; control for the full effect not named in the record | activity change, % (concentration not given with the values) | 340,000 tested, 0.49% active | AID 651724, 2012; in the data active means activity change below about -65%; inconclusive means about -30% to -65%; inactive means above about -30%; also: % is scaled to controls: 0 for no effect and ±100 for the full control effect
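Protein mix (5X: 125 nM each GST-E1A, His-CtBP) was incubated with pinned compound 2 h at 37 deg C in dark, in 50 mM Tris pH 8.0 buffer with 300 mM NaCl. Glutathione donor and nickel acceptor beads followed; AlphaScreen signal read after 1 h.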
D2 agonist – Beta-Arrestin HTS for Positive Allosteric Modulators of the Human D2 Dopamine Receptor: Agonists; D(2) dopamine receptor (Homo sapiens), P14416; activation, % (concentration not given with the values); DiscoveRx PathHunter D2 beta-arrestin, luminescence, 90 min; 100% = 57 uM dopamine signal; AID 624465, 2012; 360,000 tested, 0.084% active; in the data active = activation above about 40%; inconclusive = about 15% to 40%; inactive = below about 15%; also: compound concentration not given in the record; the text of the record calls up to 30% inactive
Target sequence (P14416 whole entry, looked up): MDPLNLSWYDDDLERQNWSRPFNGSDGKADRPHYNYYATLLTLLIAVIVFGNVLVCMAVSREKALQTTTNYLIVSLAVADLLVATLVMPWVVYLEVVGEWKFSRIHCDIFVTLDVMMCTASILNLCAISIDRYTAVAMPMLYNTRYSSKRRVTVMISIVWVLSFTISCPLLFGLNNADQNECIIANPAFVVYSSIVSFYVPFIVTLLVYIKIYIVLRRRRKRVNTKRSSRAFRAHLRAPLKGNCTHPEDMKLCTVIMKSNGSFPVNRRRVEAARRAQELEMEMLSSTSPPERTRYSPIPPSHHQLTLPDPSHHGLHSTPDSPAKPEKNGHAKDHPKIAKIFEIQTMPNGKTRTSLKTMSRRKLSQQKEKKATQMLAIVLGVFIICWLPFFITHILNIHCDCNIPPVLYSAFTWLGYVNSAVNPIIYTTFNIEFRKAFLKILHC
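Agonist mode: compounds alone added to overnight-plated D2 PathHunter cells for 90 min at 37 C, with 57 uM final dopamine (EC100) defining full response. Beta-arrestin recruitment detected by chemiluminescent reagent, read after 1 h at ambient temperature.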
Six1-Eya2 inh – qHTS Assay for Inhibitors of the Six1/Eya2 Interaction. Homeobox protein SIX1 (Homo sapiens) + Protein phosphatase EYA2 (Homo sapiens), …. AlphaScreen GST-Six1/His-Eya2 binding, biochemical; active compounds read low; control for the full effect not named in the record. activity change, % (no concentration beside the values). 360,000 tested, 0.56% active; in the data active = activity change below about -65%; inconclusive = about -30% to -65%; inactive = above about -30%; also: % is scaled to controls: 0 for no effect and ±100 for the full control effect
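Compounds are tested against tagged Six1 and Eya2 proteins bridged by glutathione donor and nickel acceptor beads; after a one-hour incubation at 37 °C without light, AlphaScreen emission is recorded.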
TRPML1 inh – qHTS for Inhibitors of the Human Mucolipin Transient Receptor Potential 1 (TRPML1) | TRPML1-inducible cells, Ca2+ dye fluorescence, FDSS; active compounds read low; inhibition of EC80 agonist-evoked calcium signal | activity change, negative = inhibition, % (concentration not given with the values) | 390,000 tested, 0.02% active | AID 624415, 2012; in the data active means activity change below about -50%; inconclusive means about -30% to -50%; inactive means above about -30%;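 also: stimulus is agonist 54-4 at its EC80 concentration; % is scaled to controls: 0 for no effect and ±100 for the full control effect; the text of the record puts the active cut at -80%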
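TRPML1-DL cells, Tet-induced overnight (~16 h, 37 °C) at 1,500 cells/well, were loaded with Ca8 no-wash dye plus quencher for 45-90 min at room temperature. Compounds were pinned during FDSS kinetic reading; agonist 54-4 at EC80 (4 uM final) then added.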
* hit, by the source's call; ? = inconclusive; · = not tested or not shown; & = joins results of further samples; [ ] = remark or other dose.

No. | SMILES | PINK1 modulator | TRPML1 agonist | CtBP-E1A blk
1 | Cc1nnc(NCc2ccco2)c2ccccc12 | -2.5% | 1.6 | -5
2 | CCO[C@H]1OC(C(=O)NCc2nc3ccccc3[nH]2)=C[C@@H](c2cn(C(C)=O)c3ccccc23)[C@@H]1CCCO | 4.2% | -0.6 | -3
3 | O=C(CCC1CCCC1)N1CCN(S(=O)(=O)Cc2ccccc2)CC1 | 0.7% | 1.5 | 8
4 | O=C(C1CCCN(Cc2ccccc2C(F)(F)F)C1)N1CCCCC1 (stereo not drawn) | 2.5% | 0.2 | 3
5 | CCCC[C@@H]1CNCCN1CCc1cccc2ccccc12 | 0.0% | 0.7 | ·
6 | O=C1CSC(=O)N1CC(O)COc1ccc(Cl)cc1 (stereo not drawn) | · | 0.1 | 2
7 | O=C(CN1CCCCC1)Nc1ccccc1 | -1.1% | -0.3 | 4
8 | CC(=O)Nc1cc2c(cc1Cl)-c1ccccc1C2 | -0.7% | 0.6 | 22
9 | Cc1ccc2c(c1)S(=O)(=O)N(C)C(c1ccccc1)=C2 | 2.3% | 2.6 | 7
10 | Cc1cc(NC(=O)C(C)SCC(=O)OCC(=O)Nc2c(C)cccc2C(C)C)no1 (stereo not drawn) | -0.8% | 3.4 | -5
11 | COc1ccc(OCCCC(=O)Oc2ccc(OC)cc2)cc1 | 3.8%[38.3 µM] | 0.9 | -1
12 | COCCNS(=O)(=O)c1ccc(-c2ccc(C)cc2)cc1 | ? | -0.4 | 0
13 | O=C(CCCCCNC(=O)c1ccccc1)C[N+](=O)[O-] | 1.0% | -1.2 | 5
14 | Cc1cc(C(=O)CN2CCC(C)CC2)c(C)n1-c1ccccc1F | 2.3% | -0.5 | -11
15 | O=c1cc(CSc2nnc(COc3cccc4ccccc34)o2)c2ccccc2[nH]1 | 6.5% | 1.1 | 6

No. | D2 agonist | Six1-Eya2 inh | TRPML1 inh
1 | -1.7 | 3 | -4
2 | 0.6 | 2 | 11
3 | 2.5 | 1 | -5
4 | -3.4 | 8 | -14
5 | -5.5 | 3 | -12
6 | -2.2 | -1 | 4
7 | -3.5 | 2 | -10
8 | -2.8 | -2 | 3
9 | 1.0 | 12 | 11
10 | -0.1 | 9 | 33
11 | 3.4 | -3 | 12
12 | 1.8 | 5 | 19
13 | -1.6 | 1 | 19
14 | -4.3 | -13 | 6
15 | 0.1 | 4 | -2

(listing goes on)
No. | SMILES | PINK1 modulator | TRPML1 agonist | CtBP-E1A blk
16 | COc1ccccc1N1CCN(C(=O)CSc2ncnc3c2cnn3-c2ccc(C)c(C)c2)CC1 | 0.6% | 1.1 | 0
17 | Cc1cc(NCCCN(C)C)n2c(nc3ccccc32)c1C#N | 1.6% | -1.5 | 5
18 | COc1cc(C(=O)NCc2ccccn2)ccc1OCc1c(C)noc1C | -1.3% | -0.3 | 6
19 | COc1cc(C(=O)N/C(=C\c2cn(C)c3ccccc23)C(=O)NCCCN2CCOCC2)cc(OC)c1OC | 1.0% | -0.1 | -25
20 | COc1ccccc1C(=O)NCCC(=O)NCc1ccncc1 | -0.2% | 0.0 | 6
21 | CC1=C(c2ccc(C)cc2)S(=O)(=O)N(Cc2ccc(C(=O)Nc3ccc(F)cc3C)cc2)C1=O | 4.1% | 0.4 | ·
22 | COc1cc(-c2noc(-c3ccc(N(C)C)c([N+](=O)[O-])c3)n2)cc(OC)c1OC | 0.1% | -0.3 | ·
23 | CC(C)N1CCN(Cc2ccc(C#CCCO)cc2)CC1CCO (stereo not drawn) | -1.6% | 0.3 | ·
24 | CN(Cc1cnc2nc(N)nc(N)c2n1)c1ccc(C(=O)NC(CCC(=O)O)C(=O)O)cc1C(F)(F)F (stereo not drawn) | -0.2% | 0.8 | -2
25 | Cc1ccc(Cl)cc1NC(=O)CON=C(N)c1ccccc1 | 0.7% | 1.6 | -23
26 | CCOC(=O)c1ccc(S(=O)(=O)NCCN(CC)CC)cc1 | 0.4% | -0.1 | 0
27 | COc1ccc(CN(C(=O)CN2C(=O)C(C)Oc3ccccc32)C2CCCC2)c(OC)c1 (stereo not drawn) | 15%[38.3 µM] | 3.6 | -3
28 | Cc1ccc(N(CC(=O)Nc2ccc(F)c(Cl)c2)S(=O)(=O)c2c(C)noc2C)cc1 | ? | 2.5 | 2
29 | C=CCOC(=O)C1=C(C)OC(N)=C(C#N)C1c1ccccc1F (stereo not drawn) | 0.9% | 0.4 | 0
30 | COCCNC(=O)CCc1c(C)nc2c(c(C)nn2-c2ccc(C)c(C)c2)c1C | 3.8% | 2.9 | ·

No. | D2 agonist | Six1-Eya2 inh | TRPML1 inh
16 | -1.1 | -4 | -25
17 | 2.4 | -8 | 5
18 | -4.7 | 3 | 1
19 | -3.6 | -6 | ?
20 | 1.6 | 3 | 2
21 | · | · | -6
22 | · | · | -4
23 | -3.1 | 3 | 15
24 | -0.4 | -30 | 2
25 | -1.8 | 1 | 24
26 | -2.6 | 3 | -5
27 | -5.4 | -11 | 22
28 | -6.7 | 8 | 1
29 | -17 | 12 | 4
30 | 3.9 | -11 | -12

Of the compounds above, these have a CF3 group.
No. | SMILES | PINK1 modulator | TRPML1 agonist | CtBP-E1A blk
4 | O=C(C1CCCN(Cc2ccccc2C(F)(F)F)C1)N1CCCCC1 (stereo not drawn) | 2.5% | 0.2 | 3
24 | CN(Cc1cnc2nc(N)nc(N)c2n1)c1ccc(C(=O)NC(CCC(=O)O)C(=O)O)cc1C(F)(F)F (stereo not drawn) | -0.2% | 0.8 | -2

No. | D2 agonist | Six1-Eya2 inh | TRPML1 inh
4 | -3.4 | 8 | -14
24 | -0.4 | -30 | 2

More compounds follow:
No. | SMILES | PINK1 modulator | TRPML1 agonist | CtBP-E1A blk
31 | COc1ccc(N(C(=O)Cc2cccs2)C(C(=O)NC2CCCCC2)c2cccn2C)cc1 (stereo not drawn) | 5.3% | -0.3 | -1
32 | CCc1ccc(NC(=O)CCC(=O)c2ccccc2)cc1 | 0.3% | 2.0 | 6
33 | COc1ccc(Br)cc1CNC(=O)C1CCCN(c2nc3ccccc3o2)C1 (stereo not drawn) | ? | 3.0 | 10
34 | NC(N)=NS(=O)(=O)c1ccc(N=C2C(=O)Nc3ccccc32)cc1 | 2.8% | 0.1 | ·
35 | Clc1ccccc1CN1CCN(/N=C/C=C/c2ccco2)CC1 | 3.4% | 4.6 | ?
36 | COc1cc(/C=N/n2cnnc2)ccc1OCCSc1ccc(C)cc1 | 3.4% | 0.9 | -2
37 | CC[C@H](C)[C@H](NC(N)=O)C(=O)NCCc1ccc(OC)cc1 | -1.1% | 0.0 | 4
38 | O=C(Nc1ccc(F)cc1)NC1CCCCC1 | 5.6%[38.3 µM] | 1.1 | -6
39 | NC(=O)c1oc2ccccc2c1NC(=O)CS(=O)(=O)c1ccccc1 | -0.9% | -0.1 | -7
40 | COC(=O)c1cc(NC(=O)COC(=O)CCc2nc3ccccc3c(=O)[nH]2)cc(C(=O)OC)c1 | 13% | 1.1 | -6
41 | COc1ccc(C2C(C#N)=C3NC(=O)c4c(sc5c4CCCCC5)N3C3=C2C(=O)CC(C)(C)C3)cc1 (stereo not drawn) | -1.6% | 0.6 | -23
42 | Nc1c2c(nc3cccc(Cl)c13)N(c1ccccc1)CC2 | 24% | 3.7 | 3
43 | COc1ccc(OCCNc2cc(N3CCCCC3)ccc2[N+](=O)[O-])cc1 | 1.7% | 0.8 | 0
44 | Cc1cc(N2C(=O)C(O)=C(C(=O)c3ccco3)C2c2ccc([N+](=O)[O-])cc2)no1 (stereo not drawn) | -1.5% | 0.7 | 0
45 | O=C(c1ccccc1)c1ccccc1NC(=O)C1CCCN1Cc1ccccc1 (stereo not drawn) | -0.7% | -0.5 | ·

No. | D2 agonist | Six1-Eya2 inh | TRPML1 inh
31 | -3.2 | 3 | -4
32 | 3.8 | 1 | 5
33 | -0.5 | 2 | 6
34 | -15 | 5 | 14
35 | -1.2 | ? | 10
36 | 0.7 | 10 | 13
37 | -2.7 | -3 | 0
38 | -3.5 | 6 | 17
39 | 1.2 | 7 | -8
40 | -2.9 | 0 | 20
41 | -3.6 | -13 | 5
42 | -1.1 | -3 | 31
43 | -2.7 | ? | 22
44 | -5.7 | -6 | 2
45 | -6.7 | -3 | 16

More results follow:
No. | SMILES | PINK1 modulator | TRPML1 agonist | CtBP-E1A blk
46 | COc1ccc(C(=O)CCC(=O)Nc2cccc(Cl)c2)cc1 | 0.2% | -0.1 | 0
47 | CN1C(=O)NC(NC(=O)c2ccncc2)(C(F)(F)F)C1=O (stereo not drawn) | -1.5% | 0.1 | -7
48 | O=C(NCCc1ccccc1)C(=O)NN=C1CCCC1 | 5.8% | 0.6 | 2
49 | CN(C[C@H](Cc1ccccc1)N(C[C@@H](Cc1cccc2ccccc12)N(CCc1ccccc1)N=O)N=O)N=O | 2.1% | 0.1 | -9
50 | CCCCCCCCCCCCCCCCn1cc[n+](C)c1 | -3.2%&18% | 1.0&2.3 | 9&1
51 | CC(=N\NC(=O)c1ccc([N+](=O)[O-])cc1)/C(=N/O)C(=O)Nc1ccccc1 | -0.4% | -0.2 | 17
52 | COc1ccc(C=C(NC(=O)c2ccccc2)C(=O)O)cc1OC | -2.7% | -0.3 | -3
53 | COCCn1c(SCC(=O)c2ccc(C)cc2)nc2cc(C(=O)NC3CCCC3)ccc2c1=O | 0.1% | -0.7 | ·
54 | COc1ccc(C=NNC(=O)CCCC(=O)NN=Cc2ccc(OC)c(O)c2)cc1O | 0.5% | -0.4 | 1
55 | Cc1ccc(N2CC(C(=O)Nc3ccc4c(c3)OCCO4)CC2=O)cc1 (stereo not drawn) | · | 0.3 | 11
56 | CCOc1ccc(CN2CCN(Cc3cnc(-c4ccccc4)s3)CC2CCO)cc1 (stereo not drawn) | 0.4% | -1.1 | ·
57 | O=S(=O)(c1ccccc1Cl)N1CCC(Cc2ccccc2)CC1 | -1.3% | · | 4

No. | D2 agonist | Six1-Eya2 inh | TRPML1 inh
46 | -1.4 | -8 | -3
47 | 0.4 | 2 | -6
48 | -1.0 | 5 | 11
49 | -1.4 | -13 | 0
50 | -0.3&0.6 | 14&10 | -8&5
51 | -1.7 | -10 | -5
52 | -2.3 | 11 | -28
53 | · | · | -11
54 | 1.4 | -7 | -13
55 | 1.5 | -3 | -2
56 | -9.7 | -3 | -6
57 | -5.5 | 8 | ·

Three of the entries above in order of the Six1-Eya2 inh value, smallest number first.
| no. | Compound | Six1-Eya2 inh |
| --- | --- | --- |
| 55 | Cc1ccc(N2CC(C(=O)Nc3ccc4c(c3)OCCO4)CC2=O)cc1 (stereo not drawn) | -3 |
| 57 | O=S(=O)(c1ccccc1Cl)N1CCC(Cc2ccccc2)CC1 | 8 |
| 52 | COc1ccc(C=C(NC(=O)c2ccccc2)C(=O)O)cc1OC | 11 |

Compound activity: PubChem, National Center for Advancing Translational Sciences (NCATS)
